26S disassembly – blocks ATP-dependent breakdown of the yeast 26S proteasome | inhibition of disassembly, % (concentration not given with the values) | hit rate 0.2% among 24,000 | anti-FLAG beads, GFP-proteasome disassembly, flow cytometry | AID 751;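 active means above 40%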;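 further: plate controls were ATP control with full disassembly for no effect and ATP-gamma-S intact proteasomes for full effect; higher percent means more bead fluorescence retained so stronger block of disassembly; stock transfer was 100 nL into about 10 µL; wells with too few beads may also be inconclusive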
VCAM-1 up – boosters of cytokine-driven VCAM-1 levels – cell-based, plate reader, pooled HUVEC, TNFa stimulus (AID 455) | HUVEC TNFa-induced VCAM-1 immunofluorescence, plate reader; numbers were filed only for top-ranked candidate wells | augmentation, % at 5 µM | hit rate 0.2% among 10,000;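 active means a compound raising TNF-alpha-driven VCAM-1 surface staining, with its hit status upheld on visual or statistical review; inactive means the rest, including hits rejected on review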;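 further: 0% = TNFa with vehicle and 100% = strongest image-checked hit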
Numbers without * were called inactive; i = inactive; x = no result given. Only part of the results is shown; rates above refer to the full screens.

Each structure is followed by: 26S disassembly | VCAM-1 up
O=C(NCc1ccco1)C(NS(=O)(=O)c1cccc2nsnc12)c1ccccc1 (configuration not stated)
  0.8 | x
CCCN1C2CCCC1CC(NC(=O)Nc1cccc(C(C)=O)c1)C2 (configuration not stated)
  2.1 | i
CCCCOc1ccc(-c2nnn(CC(=O)NCc3ccco3)n2)cc1
  -0.2 | i
Cn1cc(C(=O)NC2CCCCCCC2)c(=O)c2cc(S(=O)(=O)N3CCCC3)ccc21
  -1.1 | i
CC(=O)NC1C(=O)SC1(C)C (configuration not stated)
  0.9 | x
CCOC(=O)N1CCC(NC(=O)C2CCCN(S(=O)(=O)c3cccc4nsnc34)C2)CC1 (configuration not stated)
  0.5 | x
Cc1ccc(S(=O)(=O)N(C)Cc2nc(-c3ccc(Br)cc3)no2)cc1
  1.0 | x
CCN(CC)CC(=O)Nc1ccc(-c2nc3cc(NC(=O)CN(CC)CC)ccc3o2)cc1
  -0.3 | i
c1ccc2c(c1)C(=Nn1cnnc1)c1ccccc1-2
  0.0 | i
CCNC(=O)CC1C(=O)N(c2ccccc2)C(=O)N1CCC(C)C (configuration not stated)
  -0.1 | i
CCOc1ccc(S(=O)(=O)n2nc(C)cc2C)c2ccccc12
  -2.6 | i
CC(=O)N1CCC2(CC1)CC(=O)c1cc(OCC(=O)NCc3ccco3)ccc1O2
  -1.2 | i
CCC(=O)N1CCN(c2nc(-c3ccccc3)c3c(c2C#N)CCCC3)CC1
  4.5 | i
CC(=O)c1cc2c(cc1NC(=O)CCCC(=O)O)OCO2
  -0.8 | x
CCOC(=O)N1CCC(N2Cc3cccc(C(=O)NC(C)c4ccc5c(c4)OCCO5)c3C2=O)CC1 (configuration not stated)
  -0.4 | x
CCOC(=O)CCC(=O)NCc1ccc2c(c1)cc(C)n2C
  0.9 | x
COCc1cc(C)nc(SCC(=O)Nc2cccc(C)c2C)c1C#N
  -0.6 | i
CC(C)c1ccc(S(=O)(=O)N2CCN(CC(=O)Nc3ccc4c(c3)OCO4)CC2)cc1
  -0.7 | x
CC(CN1CCCCC1)OC(=O)c1ccc(Cl)cc1Cl (configuration not stated)
  -0.8 | i
CC1CCCCN1C(=O)C1CC(c2ccc(F)cc2)=NO1 (configuration not stated)
  -1.7 | x
CCOC(=O)CNC(=O)C(Cc1ccccc1)NS(=O)(=O)c1cccs1 (configuration not stated)
  3.2 | x
CCN1C(=O)/C(=C2\SC(N3CCCCC3)=NC2=O)c2ccccc21
  -0.7 | x
COc1cccc(NC(=O)c2oc3ccccc3c2NC(=O)C2CC2)c1
  0.6 | x
CCC(=O)Nc1c2c(nn1-c1ccc(C)cc1C)CSC2
  0.3 | x
COCC(C)NC(=O)NC1(C(F)(F)F)Oc2ccc(Cl)cc2O1 (configuration not stated)
  -0.7 | x
O=c1c2c3c(sc2n2cnnc2n1CCc1ccccc1)CCCC3
  1.5 | i
Cc1ccccc1C(=O)NC1CCN(Cc2nnnn2CCc2ccccc2)CC1
  -0.1 | i
COc1ccccc1Oc1coc2cc(O)ccc2c1=O
  -0.2 | x
CN(CC(=O)Nc1ccncc1)S(=O)(=O)c1ccccc1
  -0.6 | i
COc1ccc(OC)c(C2=NOC(C(=O)Nc3cc(C)nn3-c3ccccc3)C2)c1 (configuration not stated)
  -0.7 | i

Carrying on.
Each structure is followed by: 26S disassembly | VCAM-1 up
O=C(Nc1ccc2c(c1)OCO2)C(c1ccccc1)N1CCCCC1 (configuration not stated)
  -3.6 | x
COc1ccc(OC)c(-c2cc(C(=O)Nc3c(C)nn(Cc4ccccc4)c3C)no2)c1
  1.1 | x
CCCOc1ccc(C2c3c(oc4ccccc4c3=O)C(=O)N2CCCN2CCOCC2)cc1 (configuration not stated)
  0.1 | i
CC(=O)N1CCc2cc(S(=O)(=O)NCCC(=O)N3CCc4ccccc4C3)ccc21
  -1.1 | x
CC(c1ccccc1)N1CC(C(=O)N2CCN(c3ccccc3)CC2)CC1=O (configuration not stated)
  0.2 | x
CCn1c(C(=O)N2CCC(C(=O)NCc3cccs3)CC2)cc2sccc21
  -0.9 | x
O=C(CS(=O)(=O)c1c[nH]c2ccccc12)N1CCCCC1
  0.9 | x
COc1ccc(OC)c(S(=O)(=O)N2c3ccccc3CC2C)c1 (configuration not stated)
  -1.6 | i
CCOC(=O)c1c(NC(=O)C(F)(OC)C(F)(F)F)sc(C(=O)N2CCCCC2)c1C (configuration not stated)
  0.4 | x
COc1ccc(C2C(=O)N(C3CCCCC3)CC(=O)N2Cc2ccc3c(c2)OCO3)cc1 (configuration not stated)
  1.0 | x
CC(C)CCn1cnc2c(cnn2-c2ccc(Cl)cc2)c1=O
  -0.8 | x
CCOC(=O)c1c2n(c3ccc(O)cc13)CCCCC2
  -7.4 | i
O=C(CCC1N=C2c3ccccc3N=C(SCc3ccc(F)cc3)N2C1=O)NCc1ccco1 (configuration not stated)
  3.1 | x
COc1ccc2c(c1)C1CC(C)(NC(=O)C1C(=O)c1ccccc1)O2 (configuration not stated)
  0.8 | x
COc1ccc(S(=O)(=O)CCC(=O)N2c3ccccc3CC2C)cc1 (configuration not stated)
  -0.7 | x
COc1ccccc1-c1c(C)nn2c(C)c(C(C)=O)cnc12
  -2.4 | i
COCCn1c(=S)[nH]c2cc(C(=O)N3CCC(C(N)=O)(N4CCCCC4)CC3)ccc2c1=O
  -2.6 | x
CCCCC(NS(=O)(=O)c1ccc(OC)cc1)C(=O)O (configuration not stated)
  1.8 | 66*
CCCCCCNC(=O)CC(NS(=O)(=O)c1ccc(NC(C)=O)cc1)C(C)C (configuration not stated)
  2.1 | x
CCn1ncc(C2=NOC(C(=O)Nc3ccccc3C(=O)OC)C2)c1C (configuration not stated)
  0.7 | x
COc1ncnc2c1N=C1CC(C)(C)CC(N)=C1S2
  5.1 | i
CCOC(=O)N1CCN(c2cc3nccnc3cc2F)CC1
  -4.0 | 19
NC(=O)CSc1nnnn1-c1ccc(OC(F)(F)F)cc1
  -0.4 | x
COc1nc(N)nc(N2CCOCC2)n1
  1.1 | x
Cc1c(C(N)=O)sc2nc(-c3ccccc3)cn12
  -0.1 | x
O=C(O)CCc1ccc(-c2ccc(F)cc2)n1CC(=O)O
  4.9 | i
Cc1cc(C)nc(NC2=NCC(=O)N2c2ccc(Cl)cc2)n1
  17 | i
O=C(NC1CC1)C1CCC(=O)N1C1CCCC1 (configuration not stated)
  0.4 | i
CC12C(=O)N(c3cccc4cccnc34)C(=O)C1C1C=CC2C1 (configuration not stated)
  5.3 | x
CCN(CCNC(=O)C1CCN(S(=O)(=O)CC)CC1)c1ccccc1
  0.5 | i

Following part:
Each structure is followed by: 26S disassembly | VCAM-1 up
Cc1cccc(NC(=O)C2CCCN(S(=O)(=O)c3c(C)nn(C)c3C)C2)n1 (configuration not stated)
  1.8 | x
O=C(O)CCC(=O)N1CCc2cc(S(=O)(=O)Nc3ccc4c(c3)OCCO4)ccc21
  0.5 | x
CN1CCCN(C(c2ccccc2)c2ccc(Cl)cc2)CC1 (configuration not stated)
  0.5 | i
CC1CCCN(C(=O)C2CCN(S(=O)(=O)c3cccc4cccnc34)CC2)C1 (configuration not stated)
  -2.3 | x
CCOC(=O)N1CCC(NC(=O)C(CC(C)C)NC(=O)C2CCCCC2)CC1 (configuration not stated)
  0.0 | x
c1cn(C23CC4CC(CC(C4)C2)C3)cn1
  -2.4 | i
O=C(c1cc(-c2ccc(Cl)c(Cl)c2)on1)N1CCCC1
  -0.5 | x
Cc1ccc(/C=N/n2c(C)nnc2C)s1
  0.9 | x
CCCNC(=O)c1cc(S(=O)(=O)N2CCc3ccccc32)ccc1F
  -2.3 | i
CCOc1ccc(N(CC(=O)Nc2ccc3c(c2)OCCO3)S(=O)(=O)c2c(C)noc2C)cc1
  -0.8 | x
CCc1cc2c(NCCC(=O)O)ncnc2s1
  -0.2 | i
CCNc1ccc2c(Cl)cc(=O)oc2c1
  1.1 | i
CCOc1ncccc1C(=O)Nc1cccc(C(=O)Nc2cccc(S(=O)(=O)CCO)c2)c1
  -1.5 | x
Cc1oc(-c2ccccc2)nc1CS(=O)CC(=O)N1CCc2ccccc2C1 (configuration not stated)
  7.7 | x
Cc1ccc2nc(SCC(=O)NCc3ccco3)c(C#N)cc2c1
  3.4 | i
CCOC(=O)N1CCN(C(=O)CC(C(=O)N2CCc3ccccc32)n2ccnc2)CC1 (configuration not stated)
  -1.4 | x
COc1ccc(NC(=O)Cn2nnc(C(=O)NCc3ccccc3OC)c2N)cc1Cl
  0.3 | x
Cc1ccc(N(C)C(=O)N2CCN(c3ccccn3)CC2)cc1
  -0.2 | i
c1ccc(N=P(c2nc3ccccc3o2)(N2CCOCC2)N2CCOCC2)cc1
  1.6 | i
O=C(O)c1ccc(CS(=O)c2cccc(C(F)(F)F)c2)o1 (configuration not stated)
  -2.6 | x
Cn1c(=O)c2c(nc(N3CCCCCC3)n2CC(=O)c2ccc(Br)cc2)n(C)c1=O
  0.0 | x
CC1=C(C(=O)N2CCOCC2)C(c2ccccc2F)C2=C(CCCC2=O)N1 (configuration not stated)
  -2.4 | i
COCCN(Cc1cc2cc3c(cc2n2nnnc12)OCO3)C(=O)c1ccccc1F
  -1.4 | i
O=c1sc(Nc2ccccc2)nc2ccsc12
  0.2 | i
CCOC(=O)N1CCC(NC(=O)CCc2c(C)nc3c(c(C)nn3C(C)(C)C)c2C)CC1
  0.8 | i
CN1C(=O)C(CC(=O)N2CCN(C(c3ccccc3)c3ccccc3)CC2)N(C)C1=O (configuration not stated)
  -1.0 | i
CCOC(=O)c1c(C)c(-c2ccccc2)n(CC(=O)N2CCN(C)CC2)c1C
  3.3 | x
O=S(=O)(c1ccc2oc(-c3ccncc3)nc2c1)c1ccc2oc(-c3ccncc3)nc2c1
  0.8 | x
O=c1c2cccc3c2c(nn1CN1CCOCC1)-c1ccccc1-3
  -0.1 | x
O=C(OCc1nnc(-c2ccccc2)o1)c1ccc(S(=O)(=O)NCc2ccco2)cc1
  5.2 | i

Entries listed above printed as active in VCAM-1 up:
Each structure is followed by: 26S disassembly | VCAM-1 up
CCCCC(NS(=O)(=O)c1ccc(OC)cc1)C(=O)O (configuration not stated)
  1.8 | 66*

Other structures.
Each structure is followed by: 26S disassembly | VCAM-1 up
COCCn1c(SCC(=O)Nc2sc(C)c(C)c2C#N)nnc1C(C)C
  0.9 | i
COc1ccc(C2CC(c3ccc(C)cc3)Nc3ncnn32)cc1 (configuration not stated)
  -1.5 | i
CCOc1ccc(-n2c(C)nc3cc(C(=O)NCc4ccco4)ccc32)cc1
  1.1 | x
Cc1oc2cc(O)ccc2c(=O)c1Oc1ccccc1Br
  0.2 | x
Cc1ccc2[nH]c(=S)cc(C)c2c1
  4.5 | x
CCCn1c(CNc2ccc(Br)cc2)nc2ccccc21
  4.9 | x
Cc1c(NC(=O)c2ccc(CN3CCc4ccccc4C3)cc2)c(=O)n(-c2ccccc2)n1C
  1.5 | i
CC(NC(=O)NCCCC(=O)O)(C(F)(F)F)C(F)(F)F
  0.1 | i
CCOC(=O)C1CCN(Cc2c(O)ccc3ccccc23)CC1
  -0.8 | i
CCC(c1nnnn1CCOC)N(Cc1ccc(C)cc1)Cc1cc2cc(OC)ccc2[nH]c1=O (configuration not stated)
  -0.7 | i
CN(C)S(=O)(=O)N1CCN(c2cccc(Cl)c2)CC1
  -1.6 | i
CC(C)Cc1cc(C(=O)NCCN2CCOCC2)no1
  0.1 | x
CC(C)(C)c1ccc(-c2nnc(SCCC#N)n2C2CCCC2)cc1
  -1.0 | i
Cn1c(Cc2cccs2)nnc1SCC(=O)N1CCc2ccccc21
  -0.2 | i
N#Cc1nc(COc2ccccc2)oc1N1CCCCC1
  0.1 | x
CCN(CC)CCNC(=O)c1cn(C)c2ccc(S(=O)(=O)N(C)C3CCCCC3)cc2c1=O
  -1.2 | x
CCOC(=O)Nc1ccc(C(N)=O)cc1
  -1.0 | x
COc1ccc(N2C(=O)C3CCCN3C2c2cc(OC)c(OC)c(OC)c2)cc1 (configuration not stated)
  -2.1 | x
CCC(C)NC(=O)CSC1=Nc2ccccc2C2=NC(CC(=O)NCc3ccccc3)C(=O)N12 (configuration not stated)
  0.1 | i
COc1ccc(-c2[nH]nc3c2C(c2ccc(OC(=O)N4CCOCC4)cc2)C(C#N)=C(N)O3)cc1 (configuration not stated)
  1.8 | x
C=CCOC(=O)CCC(=O)Nc1cc(OC)nc(OC)n1
  0.2 | i
Cc1cc(C)nc(SCc2ccc3nonc3c2)n1
  0.8 | i
O=C(Nc1nc(-c2ccccc2)cs1)C1CCCO1 (configuration not stated)
  -0.2 | i
CCCCCCn1c(SCC(=O)OC)nc2c1c(=O)[nH]c(=O)n2C
  0.2 | i
O=C(CN1CCN(c2ccc(F)cc2)CC1)Nc1cc(C(F)(F)F)ccc1Cl
  0.0 | x

Whole records as entered above. Screens in order: 26S disassembly	VCAM-1 up
CC(c1ccccc1)N1CC(C(=O)N2CCN(c3ccccc3)CC2)CC1=O (configuration not stated) as listed: 0.2	x
O=C(CCC1N=C2c3ccccc3N=C(SCc3ccc(F)cc3)N2C1=O)NCc1ccco1 (configuration not stated) as listed: 3.1	x
CCOc1ncccc1C(=O)Nc1cccc(C(=O)Nc2cccc(S(=O)(=O)CCO)c2)c1 as listed: -1.5	x

Taken from above (five entries):
Each structure is followed by: 26S disassembly | VCAM-1 up
C=CCOC(=O)CCC(=O)Nc1cc(OC)nc(OC)n1
  0.2 | i
Cc1cc(C)nc(SCc2ccc3nonc3c2)n1
  0.8 | i
O=C(Nc1nc(-c2ccccc2)cs1)C1CCCO1 (configuration not stated)
  -0.2 | i
CCCCCCn1c(SCC(=O)OC)nc2c1c(=O)[nH]c(=O)n2C
  0.2 | i
O=C(CN1CCN(c2ccc(F)cc2)CC1)Nc1cc(C(F)(F)F)ccc1Cl
  0.0 | x

Screening results deposited in PubChem by several laboratories.
